Rango release inh: inhibitors of RanGTP-induced Rango-importin beta complex dissociation. O95149+P62826. Biochemical FRET Rango-importin beta, RanGTP-induced dissociation. Potency, µM (titrated, usually from 46.1 µM), inactives show at the highest dose activity change, negative = inhibition. actives 0.071% (n = 340,000). AID 540253; active means falling FRET ratio curve, often poorly fitted, with flat reads before Ran was added; inconclusive means other falling curves, or compound fluorescence or quenching; inactive means flat or rising ratio curve;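 also: potency is read from the fitted curve at half-maximal effect; % of control where 0% means no effect; nearly all actives have a fitted effect of over 45% in size; -100% = wells without RanGTP and RCC1; the record marks most hits as doubtful in a second field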
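Rango/importin beta premix (0.1/0.25 uM final), PBS + 1 mM DTT + 0.02% Tween-20 + 0.1% BSA; cpd 5 min RT; FRET pre-read; + RanGTP-RCC1 (0.6 uM Ran, 2 mM GTP, 0.2 uM RCC1); 45 min RT; FRET post-read, ex 430, em 486/530 nm.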
GLA inh pH 4.5: inhibitors of human alpha-galactosidase A at pH 4.5; P06280; purified enzyme, 4-MU-alpha-Gal fluorescence, pH 4.5; activity change, negative = inhibition, % at 105 µM; 230,000 tested, under 10 active; inconclusive = small, poorly fitted or top-dose-only inhibition, or a rising curve; inactive = flat fitted curve, though single readings scatter; no compound was filed as active;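 also: 0% = full activity with enzyme and -100% = basal without enzyme; dose as in the result columns while the protocol names 77 µM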
miR-21 FLuc: raises the signal of a miR-21 reporter | Potency, µM (doses to about 38.3 µM), inactives show at the highest dose reporter change, positive = more light | 340,000 tested, under 10 active | HeLa miR-21 FLuc reporter, luciferase, 48 h; active = well fitted rising curve with a large enough effect; inconclusive = small, poorly fitted or top-dose-only effect; inactive = no such curve, though single readings can be large or run the other way;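 also: % of control where 0% means no effect; miR-21 action dims this reporter so a rising signal means less miR-21 action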
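Using DMEM plus 10% FBS, HeLa miR-21-FLuc cells are incubated with test compounds (final up to about 40uM) for 48 hours; firefly luciferase signal is then imaged following reagent-mediated lysis.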
Rango complex inh: Rango-importin beta binding inhibition. Q14974. Rango CFP/YFP FRET sensor + importin beta, 45 min. Potency, µM (top dose mostly 92.2 µM), for inactives: top-dose inhibition of complex formation. actives 0.031% (n = 340,000). AID 540263; active = rising FRET ratio curve, often small or poorly fitted; inconclusive = mostly compound fluorescence or quenching in the first reads; inactive = flat curves in all reads;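 also: potency is read from the fitted curve at half-maximal effect; 0% = DMSO wells and 100% = buffer wells lacking importin beta; nearly all actives have a fitted effect of over 15% in size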
Target sequence (Q14974 whole entry, looked up): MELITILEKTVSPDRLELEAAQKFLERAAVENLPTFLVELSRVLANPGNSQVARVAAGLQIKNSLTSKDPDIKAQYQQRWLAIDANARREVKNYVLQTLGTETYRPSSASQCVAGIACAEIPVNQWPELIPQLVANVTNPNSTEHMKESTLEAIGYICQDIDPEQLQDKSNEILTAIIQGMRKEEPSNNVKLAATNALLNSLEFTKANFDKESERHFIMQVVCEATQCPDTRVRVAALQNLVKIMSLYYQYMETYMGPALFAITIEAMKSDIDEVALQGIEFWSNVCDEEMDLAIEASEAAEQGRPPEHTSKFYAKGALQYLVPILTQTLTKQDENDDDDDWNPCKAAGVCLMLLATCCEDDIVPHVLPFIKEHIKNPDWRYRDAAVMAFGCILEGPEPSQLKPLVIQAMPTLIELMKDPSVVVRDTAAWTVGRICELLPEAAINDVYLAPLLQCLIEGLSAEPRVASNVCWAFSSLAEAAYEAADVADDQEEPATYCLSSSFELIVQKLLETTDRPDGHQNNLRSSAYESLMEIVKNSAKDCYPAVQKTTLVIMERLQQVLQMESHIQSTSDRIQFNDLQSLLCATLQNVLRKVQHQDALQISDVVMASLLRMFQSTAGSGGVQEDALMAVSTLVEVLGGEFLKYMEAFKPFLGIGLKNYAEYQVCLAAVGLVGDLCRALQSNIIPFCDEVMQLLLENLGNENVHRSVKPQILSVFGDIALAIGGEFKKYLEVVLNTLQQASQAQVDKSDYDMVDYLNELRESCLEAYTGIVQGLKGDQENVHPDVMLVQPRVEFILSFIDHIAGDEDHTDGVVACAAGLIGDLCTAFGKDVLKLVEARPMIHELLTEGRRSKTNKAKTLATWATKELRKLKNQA
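FRET biosensor (snurportin 1 IBB flanked by EYFP and cerulean), 50 nM, with compound 5 min, then 0.125 microM importin beta in PBS, 1 mM DTT, 0.02% Tween-20, 0.1% BSA. CFP/YFP ratio read after 45 min at room temperature; pre-read flags interference.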
The depositor's hits bear a star; ? = inconclusive; · = not tested or not shown. The list is partial; the hit share may differ from the screen's.

SMILES	Rango release inh	GLA inh pH 4.5	miR-21 FLuc	Rango complex inh
Cc1nn(Cc2ccccc2)c(C)c1NC(=O)CSc1nc(-c2ccccc2)nc2c1cnn2-c1ccccc1	0%	7	-9%	-3.8%
CCN1C(=O)[C@H]2[C@H]3CN=C(SCc4ccc(C#N)cc4)N3[C@@](CC)(C(=O)OC)[C@H]2C1=O	0%	·	·	1.6%
COc1ccc(COC(=O)C2=C(C)NC(=O)NC2c2ccccc2OC(C)C)cc1 (centres undefined)	12%	·	0%	3.6%
COc1cccc(NC(=O)CN(C)C(=O)CCN2C(=O)C3CC=CCC3C2=O)c1 (centres undefined)	-7%	·	·	-1.0%
Cc1nc(Cc2ccccc2)sc1CC#N	15%	·	·	-1.1%
COc1ccc(CN2C(=O)C(C)=C(C)C2OC)cc1 (centres undefined)	1%	·	1%	-1.2%
O=C(CC(=O)NC1CCCCC1)N/N=C/c1ccccc1F	·	7	-2%	·
Brc1ccc(-c2n(-c3ccccn3)c3ccccc3[n+]2-c2ccccn2)cc1	?	-3	21%	?
COc1cccc(-c2cccc(NC(=O)C3CCN(Cc4cnn(C)c4)CC3)c2)c1	-2%	·	-1%	-1.2%
COc1ccc(/C=C/c2nc(-c3ccccc3O)n[nH]2)cc1	8%	5	-64%	-0.2%
O=C(CCC(=O)c1ccccc1)Nc1ccccc1OC(F)F	-15%	·	-17%	0.0%
Cc1ccc2nc3sc(C(=O)N4CCOCC4)c(N)c3cc2c1	-2%	-3	11%	2.8%
O=C(Nc1nncs1)c1ccccc1Br	-1%	3	-4%	-1.6%
CC(Cl)C(=O)NC(=O)NC12CC3CC(CC(C3)C1)C2 (centres undefined)	2%	2	-13%	4.7%
O=C(NC1CCCC1)c1ccc2c(c1)S(=O)(=O)c1ccccc1C2=O	0%	·	·	4.1%
CCOC(=O)c1c(C)nc2cc(C)ccn12	-4%	8	-38%	0.9%
COc1ccc(C2NC(=O)c3sc(=S)n(-c4ccccc4)c3N2)cc1 (centres undefined)	-1%	1	-1%	0.8%
O=C(NNC(=O)C1CCN(Cc2ccc(Cl)c(Cl)c2)CC1)c1cccs1	-2%	10	-2%	1.5%
COc1ccc2[nH]c(=O)c(CN(Cc3cccs3)Cc3nnnn3Cc3ccccc3)cc2c1	-8%	1	-6%	-3.7%
O=C(COC(=O)c1c2c(nc3ccccc13)/C(=C/c1ccco1)CC2)NC1CCCC1	?	?	-1%	?

Structures shown so far that have fluorine:
SMILES	Rango release inh	GLA inh pH 4.5	miR-21 FLuc	Rango complex inh
O=C(CC(=O)NC1CCCCC1)N/N=C/c1ccccc1F	·	7	-2%	·
O=C(CCC(=O)c1ccccc1)Nc1ccccc1OC(F)F	-15%	·	-17%	0.0%

Next part.
SMILES	Rango release inh	GLA inh pH 4.5	miR-21 FLuc	Rango complex inh
CCC(C)Sc1nnc(CNS(=O)(=O)c2ccc(F)cc2)n1C (centres undefined)	13%	·	-4%	-0.5%
COCCCNC(=O)c1ccc(-c2nc3ccccc3nc2-c2ccccc2)cc1	-16%	·	·	0.9%
O=C1CC(N2CCN(c3ccc(C(=O)c4ccc(F)cc4)cc3)CC2)C(=O)N1 (centres undefined)	-3%	-7	-9%	-1.2%
COc1ccc(C2C3=C(N=C4SCC(=O)N42)c2ccccc2CC3)cc1 (centres undefined)	-5%	1	-24%	4.5%
CCOC(=O)N1CCN(C(=S)NC)CC1	-9%	0	0%	-1.3%
CCCCN(C(=O)C1CC(=O)N(CCc2ccc(OC)c(OC)c2)C1)c1c(N)n(CC(C)C)c(=O)[nH]c1=O (centres undefined)	12%	·	·	-0.7%
O=C(Nc1ccc(-c2nc3cccnc3s2)cc1)c1ccc(Cl)nc1	0%	-5	-53%	-0.8%
Cc1nn(C(=O)c2ccco2)c(C)c1Sc1ccc(Cl)cc1	-3%	1	-6%	?
CC1(C)CC2CC(C)(CN2C(=O)COC(=O)c2cccc([N+](=O)[O-])c2)C1 (centres undefined)	-13%	·	·	-1.8%
CC(=O)N1CCN(Cc2ccc(Br)s2)CC1	1%	-10	-3%	-4.9%
COc1ccccc1/C=C/C(=O)Nc1ccc(N2CCOCC2)cc1	-7%	3	-1%	-4.2%
COc1ccccc1C(=O)NCCC(=O)N1CCCCC1	0%	·	-7%	2.8%
CCn1ncc([N+](=O)[O-])c1C(=O)n1nc(C)cc1C	-5%	4	-5%	-3.5%
Cc1onc(-c2ccccc2Cl)c1C(=O)Nc1cccc(S(=O)(=O)NC2=NCCC2)c1	7%	·	·	1.2%
CC(C)c1nnc(NC(=O)c2cccc(NC(=O)C(F)(F)F)c2)s1	-4%	-3	-43%	-1.5%
CN(CC(=O)Nc1nc2ccc(F)cc2s1)S(=O)(=O)c1ccc(Cl)cc1	-19%	3	12%	-0.4%
Cc1ccc(N/C=C/C(=O)c2cccs2)cc1	?	-2	-19%	?
CN(C)S(=O)(=O)c1cccc(COC(=O)c2ccc3c(c2)OCO3)c1	0%	-4	2%	-1.9%
Cc1ccc(C)c(SCC(=O)NC(=O)Nc2ccc3c(c2)OCCO3)c1	-1%	0	-13%	-0.5%
O=C(O)[C@H](CO)Nc1ncnc2sc3c(c12)CCC3	-15%	10	-3%	0.8%
COc1cccc(-n2cnc3sc4c(c3c2=O)CCC4)c1	-14%	-2	-26%	?
COc1cc(-c2ccc3c(=O)c4ccccc4n(C)c3c2)cc(OC)c1OC	?	·	-4%	?
Cc1ccc(NC(=O)CN(C)C2CCCCC2)cc1Cl	23%	·	-1%	4.1%
COCC(N)(c1ccccc1)c1nc2ccccc2n1C (centres undefined)	3%	2	-8%	-1.1%
C=CCn1cnc2c(nnn2Cc2ccc(F)cc2)c1=O	13%	-11	-3%	0.3%
Cc1ccc(NC(=O)c2ccc(NS(=O)(=O)c3c(C)noc3C)cc2)cc1C	-11%	-11	-20%	0.1%
CCOc1cc(N2CCOCC2)c(OCC)cc1NC(=O)CN1CCSC1=O	-14%	·	·	-2.9%
COc1ccc(/C(C)=N/NC(=O)CNC(=O)c2ccncc2)cc1	16%	·	-1%	-1.6%
CNS(=O)(=O)c1ccc(NC(=O)c2cc(-c3ccncc3)nc3ccc(Cl)cc23)cc1	0%	·	0%	-1.3%
O=C(NCc1ccc2c(c1)OCO2)C(=O)NC1CCCCC1	-8%	-2	-2%	-1.0%

Entries of single compounds, looked up by structure. Order of screens: Rango release inh	GLA inh pH 4.5	miR-21 FLuc	Rango complex inh
Cc1ccc(NC(=O)c2ccc(NS(=O)(=O)c3c(C)noc3C)cc2)cc1C is listed as -11%	-11	-20%	0.1%
COCC(N)(c1ccccc1)c1nc2ccccc2n1C (centres undefined) is listed as 3%	2	-8%	-1.1%
COc1cccc(-n2cnc3sc4c(c3c2=O)CCC4)c1 is listed as -14%	-2	-26%	?
C=CCn1cnc2c(nnn2Cc2ccc(F)cc2)c1=O is listed as 13%	-11	-3%	0.3%
Cc1ccc(NC(=O)CN(C)C2CCCCC2)cc1Cl is listed as 23%	·	-1%	4.1%

Later entries
SMILES	Rango release inh	GLA inh pH 4.5	miR-21 FLuc	Rango complex inh
Cc1ccc(S(=O)(=O)Nn2cnnc2)cc1	-2%	-5	4%	0.4%
O=C(CCCCC(=O)NCc1cccs1)NCc1cccs1	-7%	5	-8%	-0.1%
CCN(CC)S(=O)(=O)c1cccc(C(=O)N[C@H](C(=O)NC2=NCCS2)C(C)C)c1	17%	·	·	7.1%
COc1cc(NC(=O)c2ccc(Cl)cc2Cl)ccc1-c1cc2ccccc2oc1=O	-3%	5	-1%	-1.3%
N#C/C(=C\c1ccc(-c2ccccc2Cl)o1)C(=O)Nc1nc2ccccc2s1	?	-5	-25%	?
COc1ccccc1Nc1ncc(C(=O)N2CCC(C(N)=O)CC2)c2ccccc12	-17%	0	-2%	-3.7%
Cc1ccc(S(=O)(=O)Nc2nc3ccccc3nc2NCC2CCCO2)cc1 (centres undefined)	-10%	-8	0%	-0.5%
Cc1noc(C)c1CCC(=O)N1CCCC(N2CCN(c3ccc(F)cc3)CC2)C1 (centres undefined)	6%	·	0%	0.4%
COc1cccc(OCC(O)CNC(C)c2ccccc2)c1 (centres undefined)	2%	·	3%	0.3%
O=C(NCc1ccco1)C1CC(c2ccccc2C(F)(F)F)=NO1 (centres undefined)	11%	1	29%	2.4%
Cc1nn2c(NCCOCCO)c3c(nc2c1-c1ccccc1)CCC3	7%	-1	-3%	-2.3%
O=C(c1ccc2c(=O)n(-c3ccccc3)c(=S)[nH]c2c1)N1CCCCC1	0%	?	17%	-2.2%
CC1CCN(c2nc(-c3cccnc3)nc3scc(-c4ccccc4)c23)CC1	32%	-1	-6%	0.9%
COc1ccc(CNC(=O)C(CCSC)NC(=O)c2ccco2)cc1 (centres undefined)	-18%	-4	-1%	0.1%
COCCn1c(SCC(=O)Nc2ccc3c(c2)OCCO3)nnc1-c1c[nH]c2ccccc12	5%	3	-14%	0.2%
COc1ccccc1N1C(=O)c2cccc3c(N(C)CCO)ccc(c23)C1=O	?	·	-10%	?
COc1cc(OC)cc(C(=O)NCCc2ccc(OC)c(OC)c2)c1	30%	·	·	6.0%
COc1cc(C2NCC(c3ccc(Cl)cc3Cl)c3c2[nH]c2ccccc32)cc(OC)c1OC (centres undefined)	-7%	-5	19%	0.9%
COc1cc(C(=O)NC(=S)NNC(=O)c2cnccn2)cc(OC)c1OC	-17%	-4	27%	0.3%
S=C(Nc1ccccc1)N1N=CCC1c1ccccc1 (centres undefined)	2%	-7	-48%	0.7%
COc1cccc(-c2nc(SCC(=O)Nc3nc(-c4ccccc4)c(C)s3)[nH]c(=O)c2C#N)c1	-5%	-4	7%	0.5%
O=C(CCCCn1c(=S)[nH]c2ccsc2c1=O)NCc1ccco1	-11%	2	3%	9.1%
C=CCNc1nc(C(=O)OCC)nc2ccccc12	-6%	0	-3%	-5.8%
Cc1cc(C(=O)Nc2ccccc2)c2ccccc2n1	1%	·	-1%	-0.9%
Cc1cc(NC(=O)CSc2ccnc(=O)[nH]2)no1	-1%	·	·	-2.4%
CCC1(C)NC(=O)N(CC(=O)Nc2sc3c(c2C(N)=O)CCC3)C1=O (centres undefined)	?	7	6%	?
O=C(O)c1cc2nc3c(c(C(F)(F)F)n2n1)CCCC3	9%	-2	-11%	3.0%
Cc1occc1C(=O)NNC(=O)Nc1ccc([N+](=O)[O-])cc1	5%	-5	-6%	3.3%
COc1cc(OC)c(NC(=O)C2CC(=O)N(c3ccc4c(c3)OCCO4)C2)cc1Cl (centres undefined)	10%	·	·	1.0%
Cc1nc2cccnc2nc1C	19%	11	-3%	-0.7%
COc1cccc(C2Nc3ccccc3NC3=C2C(=O)CC(C)(C)C3)c1 (centres undefined)	-3%	·	0%	-2.7%
Cc1cc(C)n(CCNC(=O)c2cc(COc3c(F)cccc3F)on2)n1	2%	3	3%	?
CCCC(=O)NNc1c2ccccc2nc2ccccc12	-4%	3	-9%	?
O=C(/C=C/Nc1cccc(O)c1)c1ccccc1	?	-5	-6%	?
O=C(NC(=S)N1CCCC(O)C1)c1ccco1 (centres undefined)	14%	·	·	-2.7%
CN(C)C(=O)COC(=O)c1ccccc1Sc1ccccc1C#N	0%	5	-5%	-1.7%
O=C(c1cccs1)N1CCC(Cc2ccccc2)CC1	0%	3	-5%	1.6%
CCCOc1cccc(C(=O)N2CCN(C(=O)C3CCCO3)CC2)c1 (centres undefined)	10%	·	-5%	1.5%
COc1ccc(-c2nn(Cc3ccccc3)cc2C(=O)N2CCN(c3ncccn3)CC2)cc1	8%	·	·	-3.3%
COc1ccc(NS(=O)(=O)c2ccc(O)c(NC(=O)c3cc4c(C)nn(-c5ccc(F)cc5)c4s3)c2)cc1	-13%	?	-1%	-3.7%
CCC(C)NC(=O)c1ccccc1NC(=O)CN(c1ccc(OC)cc1)S(C)(=O)=O (centres undefined)	-12%	4	-6%	-1.2%
CCOC(=O)Oc1ccc(/C=C2\N=C(C)OC2=O)cc1	1%	·	0%	0.4%
